AmpC inh no det: Promiscuous and Specific Inhibitors of AmpC Beta-Lactamase (assay without detergent); P00811; AmpC nitrocefin hydrolysis, absorbance 480 nm, no detergent; potencies from a single point are estimates; Potency, µM (highest dose often 28.7 µM), for inactives: top-dose activity change, negative = inhibition; hit rate 1.8% among 71,000; active = falling curve, for most hits resting on a single point; inconclusive = weak or doubtful change; inactive = flat or rising curve; note: % of control where 0% means no effect; about half of the hits show no inhibition at the top dose; a quarter of the inactives give rising signals
Target sequence (P00811 whole entry, looked up): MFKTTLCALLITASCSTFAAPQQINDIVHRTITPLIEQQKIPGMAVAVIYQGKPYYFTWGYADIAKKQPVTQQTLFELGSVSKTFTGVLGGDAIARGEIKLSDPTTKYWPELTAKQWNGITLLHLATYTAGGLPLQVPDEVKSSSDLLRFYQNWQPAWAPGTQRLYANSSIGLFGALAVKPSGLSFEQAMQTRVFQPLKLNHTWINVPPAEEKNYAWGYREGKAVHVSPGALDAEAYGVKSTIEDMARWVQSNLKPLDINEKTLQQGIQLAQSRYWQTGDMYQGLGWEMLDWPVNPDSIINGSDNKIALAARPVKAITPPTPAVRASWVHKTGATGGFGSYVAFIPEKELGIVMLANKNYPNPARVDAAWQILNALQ
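AmpC in 20 mM phosphate buffer pH 7.0 was preincubated 15 min at room temperature with compounds. Nitrocefin (800 uM stock) was then added and hydrolysis followed at 480 nm every 20 s for 4 min.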
* hit, by the source's call; ? = inconclusive; & = joins results of further samples; [ ] = remark or other dose. Potency is the fitted concentration of half-maximal effect.

A first look:
SMILES	AmpC inh no det
Cc1ccc(NC(=O)CSc2nnc(CSc3nc(C)cc(C)n3)n2Cc2ccco2)c(C)c1	84.8%
CCS(=O)(=O)n1nc(-c2ccccc2)nc1N	-1.1%
O=C(COC(=O)c1ccccc1NC(=O)c1ccco1)NCCC1=CCCCC1	1.7%

Main list, repeating the preview:
SMILES	AmpC inh no det
Cc1ccc(NC(=O)CSc2nnc(CSc3nc(C)cc(C)n3)n2Cc2ccco2)c(C)c1	84.8%
CCS(=O)(=O)n1nc(-c2ccccc2)nc1N	-1.1%
O=C(COC(=O)c1ccccc1NC(=O)c1ccco1)NCCC1=CCCCC1	1.7%
O=C(c1ccncc1)N1CCC2(CCN(Cc3ccccc3)CC2)CC1	-16.9%
COc1cccc(Cn2c(=O)c(C)nc3cnc(N4CCOCC4)nc32)c1	4.7%
CCOC(=O)C1=C(c2ccccc2)NC(SCC(=O)Nc2ccc(C)cc2)=C(C#N)C1c1ccco1 (stereo unspecified)	?
COc1ccc(NC(=O)c2cc(Cl)ccc2NC(=O)c2ccco2)c(OC)c1	45.4%
COC(=O)c1ccc2c(=O)n(CCCN3CCCC3=O)c(=S)[nH]c2c1	5.4%
COCCNC(=O)CSc1nc(-c2ccc(OC)c(OC)c2)cc(C(F)(F)F)n1	88.4%
COc1ccc(N2C(=O)CCC(C(C)=O)=C2C)cc1	-14.8%
O=c1cccc2n1CC1CC2CN(Cc2cccc(Cl)c2Cl)C1 (stereo unspecified)	95.9%
COc1ccccc1N1CCN(c2ncnc3c2oc2ccccc23)CC1	127.6%
CCOC(=O)c1csc(NC(=O)c2cc(OC)c(OC)c(OC)c2)n1	70.5%
O=c1cc(O)nc(SCc2ccccc2)[nH]1	?
Cc1ccc(NC2c3ncccc3C(=O)N2C2CCCCC2)cc1C (stereo unspecified)	59.1%

4 structures already listed, arranged by heavy-atom count, smallest number first.
SMILES	AmpC inh no det
CCOC(=O)c1csc(NC(=O)c2cc(OC)c(OC)c(OC)c2)n1	70.5%
COc1cccc(Cn2c(=O)c(C)nc3cnc(N4CCOCC4)nc32)c1	4.7%
O=C(COC(=O)c1ccccc1NC(=O)c1ccco1)NCCC1=CCCCC1	1.7%
CCOC(=O)C1=C(c2ccccc2)NC(SCC(=O)Nc2ccc(C)cc2)=C(C#N)C1c1ccco1 (stereo unspecified)	?

(cont.)
SMILES	AmpC inh no det
c1ccc(Cn2nnnc2C(c2ccncc2)N2CCOCC2)cc1 (stereo unspecified)	-0.6%
Cc1nnc(Oc2ccccc2)c2ccccc12	15.3%
Cc1cccc(N2CCN(C(=O)Cn3nc(Cc4ccncc4)c4ccccc4c3=O)CC2)c1C	141.2%
O=C(O)CC(NC(=O)OCc1ccccc1)c1ccccc1 (stereo unspecified)	-9.6%
O=C(Cc1ccccc1)N(c1ccc(F)cc1)C1C=CS(=O)(=O)C1 (stereo unspecified)	2.1%
CCCCC(SCC(=O)Nc1ccccc1)C(=O)O (stereo unspecified)	7.3%
CC1=C(C#N)C(C(F)(F)F)(C(F)(F)F)N=C(c2ccco2)N1	0.5%
COc1cc(S(=O)(=O)N(Cc2cccnc2)Cc2ccco2)ccc1-n1cnnn1	38.7%
CCN(CCCNC(=O)CCCCn1c(=O)[nH]c2ccccc2c1=O)c1ccccc1	37.1%
COc1ccccc1-n1c(CNC(=O)c2ccco2)nnc1SCC(=O)Nc1ccc(F)cc1	37.6%
Clc1ccccc1-c1nc(-c2ccccc2)n[nH]1	-8.0%
CN(C)CCCN1c2ccccc2Sc2ccc3ccccc3c21	12.8%[5.75 µM]
O=C(CCCCCn1c(=O)[nH]c2ccccc2c1=O)N1CCN(Cc2ccc3c(c2)OCO3)CC1	122.3%
CCOC(=O)N1CCC(NC(=O)CCC(=O)N2CC(C)Oc3ccccc32)CC1 (stereo unspecified)	54.4%
O=C(Nc1cccc(-c2cnc3ccccc3n2)c1)c1ccco1	17.7%
COCc1nnc(NS(=O)(=O)c2ccccc2)s1	-6.1%
COc1ccccc1C(=O)Nn1c(C2CCC2)nc2ccccc2c1=O	19.2%
COC(=O)C1CC1C(NC(=O)[C@H]1CCCCN1)c1ccccc1 (stereo partly specified)	35.7%
O=C(Oc1ccccc1)N1CCC2(CC1)CN(c1ccccc1)C2	61.7%
CCC1Oc2ccccc2N(CC(=O)NCCCN2CCC(C)CC2)C1=O (stereo unspecified)	-13.6%
O=C(CN(Cc1ccccc1)C(=O)c1ccc2c(c1)OCCO2)NCc1ccc2c(c1)OCO2	16.8%
CCN(CC(=O)Nc1ccccc1C(=O)OC)S(=O)(=O)c1ccccc1	21.0%
Cc1ccc(-n2ncc3c2ncn2c(C)nnc32)cc1C	35.9%
CC1=C(C(=O)N(C)Cc2ccccc2)C2(CCC(C)CC2)OC1=O (stereo unspecified)	80.9%
CC(=O)Nc1ccc(S(=O)(=O)N2CCN(C(=O)Cc3ccccc3)CC2)cc1	10.6%
N#CCCn1c(=O)c(-c2cc(F)cc(F)c2)nc2cnc(OCc3ccccc3)nc21	6.4%
O=S(=O)(NCc1cccnc1)c1ccc(Cl)c(Cl)c1Cl	-1.5%
Cc1ccc(S(=O)(=O)Cc2ccc(C(=O)NCc3ccc4c(c3)OCO4)o2)cc1	7.7%
CCC(=O)NCCc1cc2ccc(C)cc2[nH]c1=O	-6.8%
Cc1cc2ncn(S(=O)(=O)c3ccc(S(=O)(=O)N4CCOCC4)cc3)c2cc1C	25.6%
O=C(Nc1ccc2c(c1)OCO2)OCc1ccccc1	-11.8%
CCC(=NCc1ccc2c(c1)OCO2)c1c(O)n(C2CCCCC2)c(=O)[nH]c1=O	3.7%
O=C(c1ccccc1CCc1ccccc1)N1CCN(c2ccccn2)CC1	69.1%
C=C(C)COc1ccc(-c2[nH]ncc2Oc2ccccc2OCC)c(O)c1	-10.4%
CCOc1cc(C(=O)NCc2ccncc2)cc(OCC)c1OCC	31.5%
COCCCn1c(CCC(=O)O)ccc1-c1cccs1	14.5%
COc1cccc(Cn2c(=O)cnc3cnc(Oc4ccccc4)nc32)c1	10.8%
COc1ccccc1OCc1nc2ccccc2[nH]1	-6.0%
CN1CCN(C(=O)c2ccc(COc3ccc(Cl)cc3Cl)cc2)CC1	126.0%
COc1ccc(C2C(C(C)=O)=C(C)Nc3ncnn32)cc1OC (stereo unspecified)	-4.8%
O=C(Nc1ccccn1)N1CCOCC1	1.6%
N#Cc1ccc(CSc2nnc(NC(=O)CN3C(=O)C4CC=CCC4C3=O)s2)cc1 (stereo unspecified)	?
CCCSc1oc(-c2ccco2)nc1S(=O)(=O)c1ccccc1	13.8%
CC(=O)c1cnc(Nc2nc(C)c3ccccc3n2)nc1C	-5.2%
O=C1CN(c2ccccc2Cl)C(=O)CN1c1ccccc1Cl	5.7%
Cc1ccc(S(=O)(=O)N2CCOCC2)cc1C(=O)NCc1ccco1	-4.6%
COc1ccc(OC)c(C(=O)CSc2nnc(-c3cccs3)o2)c1	17.9%
COc1ccc(NC(C)=O)cc1NC(=O)CN1CCN(C2c3ccccc3-c3ccccc32)CC1	85.5%
Cc1ccc(-c2noc(CNCCCN(C)C)n2)cc1	9.7%
CSc1nc2ccccc2n1CC(=O)Nc1ccccc1	5.5%
Cc1noc(/C=C/N(C)C)c1S(=O)(=O)N1CCCC(C(=O)NCCC2=CCCCC2)C1 (stereo unspecified)	66.4%
O=c1c2ccccc2[nH]c(=S)n1-c1ccc2c(c1)OCO2	-9.0%
O=C1c2ccncc2C(=O)N1CO	-8.1%
O=C(O)CCCC(=O)Nc1cccc(C(F)(F)F)c1	-2.4%
O=P1(O)C=C(c2ccccc2)NC(c2ccccc2)=C1	-3.6%
CN1CCN(c2ccccc2NC(=O)c2cc(Br)ccc2Cl)CC1	-9.0%
CC(C)C[C@@H](CC(=O)N[C@H](CC(=O)N[C@@H]1CCCC[C@H]1C(=O)N[C@H](CC(=O)N[C@@H](CCC(=O)O)CC(=O)O)Cc1ccccc1)C(C)C)NC(=O)[C@@H]1CNCC[C@H]1N	137.6%
Cn1c(=O)c2c(nc(CN3CCC(C(N)=O)CC3)n2CCc2ccccc2)n(C)c1=O	42.2%
CCC1CCCCN1CCCNC(=O)COc1cc(=O)n(C)c2ccccc12 (stereo unspecified)	-7.1%
CC1(C)SC2c3ccccc3C(=O)N2[C@@H]1C(=O)NCc1ccco1 (stereo partly specified)	7.2%

4 of the compounds above, with each value named:
> CC(C)C[C@@H](CC(=O)N[C@H](CC(=O)N[C@@H]1CCCC[C@H]1C(=O)N[C@H](CC(=O)N[C@@H](CCC(=O)O)CC(=O)O)Cc1ccccc1)C(C)C)NC(=O)[C@@H]1CNCC[C@H]1N
  AmpC inh no det: 137.6%
> Cn1c(=O)c2c(nc(CN3CCC(C(N)=O)CC3)n2CCc2ccccc2)n(C)c1=O
  AmpC inh no det: 42.2%
> CCC1CCCCN1CCCNC(=O)COc1cc(=O)n(C)c2ccccc12 (stereo unspecified)
  AmpC inh no det: -7.1%
> CC1(C)SC2c3ccccc3C(=O)N2[C@@H]1C(=O)NCc1ccco1 (stereo partly specified)
  AmpC inh no det: 7.2%

The results go on.
SMILES	AmpC inh no det
N#CC(C(=O)NCc1ccco1)c1nc2ccccc2nc1N1CCOCC1 (stereo unspecified)	108.7%
COC(=O)c1ccccc1NC(=O)C1CCCCC1C(=O)O (stereo unspecified)	4.5%
CCC(=O)OCCn1c(=O)c2cc3c(=O)n(CCOC(=O)CC)c(=O)c3cc2c1=O	3.7%
O=C(O)c1ccc(NS(=O)(=O)/C=C/c2ccccc2)cc1O	-16.0%
C1CCC(OCCN2CCN(CCOC3CCCCC3)CC2)CC1	31.6%
O=C(O)c1ccc(NCc2nc3cc4ccccc4cc3[nH]2)cc1	-6.4%[5.75 µM]
Cc1cc(NC(=O)CCC2CCCC2)no1	-12.2%
CCCCCCN(CCCCCC)C(=O)Cc1c(-c2ccc(Cl)cc2)[nH]c2ccc(Cl)cc12	5.2%
O=C(c1cccc2ccccc12)N1CCN(CC2CC=CCC2)CC1 (stereo unspecified)	88.1%
CCN1CCCC1CNC(=O)CSc1cc(=O)n(C)c2cc(Cl)ccc12 (stereo unspecified)	29.0%
CC(=O)Nc1ccc(S(=O)(=O)N2CCC(NC(=O)C(Cc3cccn3C)NC(C)=O)CC2)cc1 (stereo unspecified)	37.5%
CCn1nnnc1SCC(=O)Nc1ccc(OCc2ccccc2)cc1	-21.7%
Oc1ccccc1C1=Nc2nc3ccccc3n2C(c2ccccc2)C1 (stereo unspecified)	-12.3%
CCc1ccc(NC(=O)CCn2c(=O)oc3ccccc32)cc1	-1.6%
FC(F)(F)c1ccccc1-c1nccc(NCc2cccs2)n1	3.3%
O=C(O)COc1ccc(Cl)cc1CO	-14.8%
CCC(=O)Nc1cccc(NC(=O)CSc2nnc(C(C)C)n2CC)c1	25.9%
O=C(c1cc2ccccn2n1)N1CCCC1	-1.5%
CCOC(=O)CNC(=O)CSc1ncnc2c1cnn2Cc1ccccc1	27.7%
COc1ccc(-n2c(=O)c(CCc3ccccc3)nc3cncnc32)cc1	23.5%
CC(=O)N=c1sc(C(C)(C)C)c(C)n1C	2.4%
COc1cc(C2CC(=O)c3cnc(NC(=O)COc4ccccc4)nc3C2)cc(OC)c1OC (stereo unspecified)	87.1%
COc1ccccc1CN1CCC2(CC1)CCN(S(C)(=O)=O)CC2	-7.0%
COc1ccc(OC)c(S(=O)(=O)N2CCN(C)CC2)c1	1.4%
CCN1CCN(C(=O)C2CC(c3ccc(F)cc3)=NO2)CC1 (stereo unspecified)	3.98µM*[single pt active]
Cc1ccc(C)c(SCC(=O)Nc2nnc(-c3ccccc3)o2)c1	-20.5%
CCOC(=O)c1ccc2nc(NC(=O)c3cccs3)sc2c1	-14.5%
Cn1c(=O)c2cc(S(=O)(=O)NC(C(=O)NCc3cccnc3)c3ccccc3)ccc2n(C)c1=O (stereo unspecified)	3.98µM*[single pt active]
O=S(=O)(NC1CC2CCC1C2)c1ccc(Br)s1 (stereo unspecified)	-14.5%
O=C(NCc1ccco1)c1cnn2c1NC(c1ccc(Br)cc1)CC2C(F)(F)F (stereo unspecified)	63.0%
Cc1ccc2c(c1)-c1c(ssc1=S)C(C)(C)N2C(=O)CSc1nncn1C	121.6%
CC(C)(C)n1nc2c(c1NC(=O)c1ccc(S(=O)(=O)N3CCCC3)cc1)CS(=O)C2 (stereo unspecified)	1.8%
NC(=O)CSc1nnc(-c2ccc(S(=O)(=O)N3CCOCC3)cc2)n1Cc1ccccc1	66.0%
Cc1[nH]c(C)c(CN(C)C)c1CN(C)C	3.1%[5.75 µM]
O/C(=C\Sc1nnc(Cc2ccccc2)o1)c1ccc(Br)cc1	-8.7%
CCCCN(C(=O)c1ccc(Cl)cc1)C1CC2CCC(C1)N2C (stereo unspecified)	3.98µM*[single pt active]
NS(=O)(=O)c1ccc(-n2nncc2C23CC4CC(CC(C4)C2)C3)cc1	7.4%
O=C(CN1CCN(C(=O)N2CCCCC2)CC1)Nc1ccc(F)cc1	39.9%
Cc1ccc(CN2C(=O)CCC2C(=O)NCCCN2CCCCC2C)cc1 (stereo unspecified)	-9.6%
CN(C)CCN=Cc1c(O)n(-c2cccc(C(F)(F)F)c2)c(=O)[nH]c1=O	-0.7%
CCC/C(O)=C1\C(=O)CCCC1=NC(C)C(=O)O (stereo unspecified)	-6.8%
CC(=O)N1CCC2(CCN(Cc3nccs3)CC2)CC1	34.7%
C(=C\c1ccccc1)/CN1CCN(c2ncnc3c2oc2ccccc23)CC1	-21.9%
CP(=O)(O)CCCN	-3.7%&32.2%&5.2%
c1ccc(CNc2ccnc(-c3ccoc3)n2)cc1	18.2%
O=c1[nH]c(NCCO)nc2c1C1(CCCCC1)Cc1ccccc1-2	8.8%
COc1ccc(NC(=O)C2CCCCN2CC(=O)OCc2ccccc2)cc1OC (stereo unspecified)	80.1%
COc1ccc(-c2noc(CCCC(=O)O)n2)cc1	-4.9%
Cc1cc(N2C(=O)C3CCCN3C2c2cccc(Cl)c2)no1 (stereo unspecified)	9.1%
Cc1ccc2cc(CN(Cc3cccs3)Cc3nnnn3CC3CCCO3)c(=O)[nH]c2c1C (stereo unspecified)	131.7%
CCOC(=O)c1[nH]c2ccc(OC)cc2c1N=CN(C)C	0.4%
Cc1cccc(OCCCCc2c(C)n[nH]c2C)c1	36.0%

Source: PubChem BioAssay

Some of the compounds tested; count on the stated rates, not on these rows.
